Screens deposited in PubChem BioAssay by several laboratories.
FGF22 binding: FGF22 (human) thermal shift binding; Q9HCT0; calls only at 9.99 µM; 1.5% of 340,000 active; AID 651658; recombinant FGF22 thermal shift, SYPRO orange fluorescence; percent of sucrose octasulfate shift, DMSO zero;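 active = melting point raised past a set limit in the mean and every replicate; three in four hits are not shown here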
E coli growth: blocks Escherichia coli growth. OD600 absorbance (no concentration beside the values). AID 1053175. 0.21% of 330,000 active. OD600, 23 h; stronger effect = lower value;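 active = OD600 absorbance below the run mean of sample wells minus 3.6 SD, in any replicate, cut at about 0.56 in these data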;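 note: stock transfer was 300 nL into about 60 µL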
HNF4A DNA FP: change in binding of human HNF4 alpha to DNA; 0.3% of 360,000 active; AID 1224865; activity change, % at 10 µM; HNF4a-FITC DNA binding, fluorescence polarization, 1 h; P41235; in the data active = activity change above about 30%, passing the limit was not always enough;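 note: controls were the assay level and a saturating level of protein; the project sought stronger binding though the title names inhibitors; some compounds called inactive have numbers as strong as hits; positive values seem to mean higher polarization but the record does not say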
Target sequence (P41235 whole entry, looked up): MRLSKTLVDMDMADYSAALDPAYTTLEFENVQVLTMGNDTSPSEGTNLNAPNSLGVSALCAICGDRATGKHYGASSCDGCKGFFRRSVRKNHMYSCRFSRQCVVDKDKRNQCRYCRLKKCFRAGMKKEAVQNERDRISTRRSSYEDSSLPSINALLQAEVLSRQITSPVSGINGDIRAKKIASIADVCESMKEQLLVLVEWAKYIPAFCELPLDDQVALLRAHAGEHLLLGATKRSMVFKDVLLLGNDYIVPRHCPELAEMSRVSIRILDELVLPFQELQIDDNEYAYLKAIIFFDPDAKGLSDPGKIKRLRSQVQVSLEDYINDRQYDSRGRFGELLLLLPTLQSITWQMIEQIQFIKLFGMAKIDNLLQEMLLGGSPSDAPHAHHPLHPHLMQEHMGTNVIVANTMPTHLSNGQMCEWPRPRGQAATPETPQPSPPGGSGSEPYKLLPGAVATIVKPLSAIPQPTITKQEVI
UCH37 inh: inhibitors of human deubiquitinating enzyme UCH37. Q9Y5K5. purified proteasome/UCH37, Ub-AMC cleavage fluorescence. inhibition, % (concentration not given with the values). 0.33% of 330,000 active;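 active = mean of two replicates above 20%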;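 note: 0% = compound-free wells with enzyme and 100% = wells lacking proteasome; stock transfer was 100 nL into about 20 µL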
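Material: human UCH37 enzyme supplied as purified proteasome complex / Amount: 0.15 nM proteasome as dispensed / Buffer or medium: pH 7.4 Tris-HCl (50 mM) with ovalbumin, ATP-MgCl2, DTT / Times: preincubation 30 min, reaction 25 min, room temperature / Technique: AMC fluorescence from Ub-AMC cleavage, excitation 355 nm, emission 460 nm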
rRNA inh HTS: selective bacterial rRNA inhibition in E. coli | AID 720706 | GFP signal change (wild-type ribosome), % (concentration not given with the values) | 1.6% of 350,000 active | E. coli WT GFP vs humanized-ribosome RFP mutants, fluorescence, 24 h; stronger effect = lower value; DMSO median 0, no signal -100;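 active = significant combined selectivity score with lowered wild-type GFP, culture density cut under 30%, mutant RFP and density less affected; inactive = any of these conditions unmet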; note: one replicate is shown; some compounds called inactive have numbers as strong as hits
ALR H2O2 inh: human ALR oxidase inhibition via reduced H2O2; purified ALR, DTT oxidation, H2O2 HRP-luminol luminescence; inhibition, % (concentration not given with the values); 3.8% of 290,000 active;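 active = mean and each replicate at 75% or more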;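 note: stock transfer was 7.5 nL into about 7.5 µL; 0% = neutral wells and 100% = wells with inactivated enzyme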
Target sequence (P55789 whole entry, looked up): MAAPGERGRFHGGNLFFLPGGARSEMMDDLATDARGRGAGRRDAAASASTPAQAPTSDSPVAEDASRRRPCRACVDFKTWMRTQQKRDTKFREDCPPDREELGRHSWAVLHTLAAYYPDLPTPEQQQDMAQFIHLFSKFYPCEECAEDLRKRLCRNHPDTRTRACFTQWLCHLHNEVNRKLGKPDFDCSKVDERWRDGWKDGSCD
B2AR ag: human beta-2 adrenergic receptor agonism by FAP; P07550; Am2.2-beta2AR cells, FAP receptor internalization, flow cytometry; reference of the scale not given here; response, % (no concentration beside the values); 0.43% of 340,000 active; AID 504454;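 active = response above a set limit, near 3 SD of response in nonfluorescent compounds, cut at about 42% in these data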;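 note: stock transfer was 100 nL into about 11 µL; a reference agonist was the positive control; negative values mostly stem from fluorescent compounds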
Target sequence (P07550 whole entry, looked up): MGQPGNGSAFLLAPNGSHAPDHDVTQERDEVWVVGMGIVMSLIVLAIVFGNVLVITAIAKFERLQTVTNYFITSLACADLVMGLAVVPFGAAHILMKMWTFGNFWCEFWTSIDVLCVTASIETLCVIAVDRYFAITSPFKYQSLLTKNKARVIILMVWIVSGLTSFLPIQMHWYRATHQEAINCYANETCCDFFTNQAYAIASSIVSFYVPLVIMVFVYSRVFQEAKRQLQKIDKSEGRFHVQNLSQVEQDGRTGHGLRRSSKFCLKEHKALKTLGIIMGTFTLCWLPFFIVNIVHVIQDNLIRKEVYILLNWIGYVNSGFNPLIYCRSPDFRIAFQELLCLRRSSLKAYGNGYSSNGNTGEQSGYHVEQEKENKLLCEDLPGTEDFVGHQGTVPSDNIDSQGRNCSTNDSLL
rRNA inh HTS OD600: also measured in rRNA inh HTS; calls as there; OD600 change, %; measured here: OD600 growth;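 optical density of the mix in the first replicate; 0 = DMSO median and -100 = no signal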
rRNA inh HTS RFP: second read-out of rRNA inh HTS, no call of its own (marks repeat the call); RFP signal change, %; measured here: RFP humanized mutant strains;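 first replicate; 0 = DMSO median and -100 = no signal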
The depositor's hits bear a star; i = inactive; x = no result given. The list is partial. The share of hits here may be higher or lower than overall.

Each structure is followed by: FGF22 binding | E coli growth | HNF4A DNA FP | UCH37 inh | rRNA inh HTS | rRNA inh HTS OD600 | rRNA inh HTS RFP | ALR H2O2 inh | B2AR ag
1) Cc1ccc(N(C(=O)c2ccc3c(c2)OCO3)C2C=CS(=O)(=O)C2)cc1 (stereo unspecified)
    x | 0.65 | 1.2 | 3.9 | 5 | 6 | 1.7 | 4 | 4
2) Cc1ccsc1C(=O)OCC(=O)N1CC(C)CC(C)C1 (stereo unspecified)
    i | 0.71 | -4.0 | 3.5 | -3 | -8 | -0.8 | -14 | -2
3) CC(=O)OCc1nc2sc(C)c(C)c2c(=O)[nH]1
    x | 0.73 | 5.0 | 1.6 | x | x | x | 4 | 1
4) CCNC(=O)C1(C)CCN(Cc2ccccc2C#N)C1 (stereo unspecified)
    i | x | -1.5 | x | 13 | 13 | -1.5 | x | x
5) CC(=O)Nc1ccc(S(=O)(=O)NC(C)C(=O)NCC(c2ccco2)N2CCCCC2)cc1 (stereo unspecified)
    i | 0.68 | 1.1 | -1.8 | 10 | 14 | -1.3 | -5 | -3
6) CCOC(=O)C(C)Oc1ccc(C2NC(=O)NC(C)=C2C(C)=O)cc1Br (stereo unspecified)
    i | 0.73 | 5.6 | -1.4 | 1 | 5 | -0.9 | -1 | 7
7) Fc1cc(NCc2ccccc2)nc(NCc2ccccc2)n1
    i | x | 0.6 | x | -47 | -63 | -25 | -2 | 1
8) CSc1ccc(S(=O)(=O)NCC(=O)OCC(=O)N(Cc2ccccc2)C(C)C)cc1[N+](=O)[O-]
    i | 0.67 | -2.1 | 2.0 | 0 | -2 | 2.1 | -22 | -4
9) CC(C)C(=O)Nc1nc2ccc(S(C)(=O)=O)cc2s1
    i | 0.71 | -1.2 | -1.0 | 6 | 11 | -1.0 | x | -3
10) Cc1ccc(NC(=O)Nc2cc(C)on2)cc1
    i | 0.63 | -0.1 | -0.3 | 2 | 3 | -1.1 | 1 | 4
11) O=C(CN1C(=O)c2ccccc2S1(=O)=O)NC1CCCCC1
    i | 0.7 | 1.2 | 0.6 | 10 | 7 | 0.3 | -3 | 2
12) Cc1nc2nc(SCC(=O)O)nn2c(C)c1Cc1c(F)cccc1Cl
    i | 0.65 | -3.7 | 2.4 | -10 | -4 | -25 | 9 | -2
13) Cc1ccc(Cn2ncc3c(NCCCN(C)C)ncnc32)cc1
    i | 0.67 | 2.7 | 5.0 | 11 | 8 | -4.2 | -8 | 2
14) Cc1sc2nc(C)n(/N=C/c3ccc(O)cc3O)c(=O)c2c1C
    i | x | -6.6 | x | 4 | 4 | -1.7 | 35 | -6
15) Cc1ccc(-c2cn(CCN)c(-c3ccncc3)n2)cc1
    i | 0.68 | -2.9 | -0.6 | 1 | 5 | 3.2 | 51 | -1

Reprinted from the part before: 6 compounds; new compounds follow.
Each structure is followed by: FGF22 binding | E coli growth | HNF4A DNA FP | UCH37 inh | rRNA inh HTS | rRNA inh HTS OD600 | rRNA inh HTS RFP | ALR H2O2 inh | B2AR ag
10) Cc1ccc(NC(=O)Nc2cc(C)on2)cc1
    i | 0.63 | -0.1 | -0.3 | 2 | 3 | -1.1 | 1 | 4
11) O=C(CN1C(=O)c2ccccc2S1(=O)=O)NC1CCCCC1
    i | 0.7 | 1.2 | 0.6 | 10 | 7 | 0.3 | -3 | 2
12) Cc1nc2nc(SCC(=O)O)nn2c(C)c1Cc1c(F)cccc1Cl
    i | 0.65 | -3.7 | 2.4 | -10 | -4 | -25 | 9 | -2
13) Cc1ccc(Cn2ncc3c(NCCCN(C)C)ncnc32)cc1
    i | 0.67 | 2.7 | 5.0 | 11 | 8 | -4.2 | -8 | 2
14) Cc1sc2nc(C)n(/N=C/c3ccc(O)cc3O)c(=O)c2c1C
    i | x | -6.6 | x | 4 | 4 | -1.7 | 35 | -6
15) Cc1ccc(-c2cn(CCN)c(-c3ccncc3)n2)cc1
    i | 0.68 | -2.9 | -0.6 | 1 | 5 | 3.2 | 51 | -1
16) CC(C)NC(=O)/C(C#N)=C/c1ccc(N(C)C)o1
    i | 0.65 | 170 | 32* | 3 | 3 | -3.6 | 98* | -15
17) Cc1ccc(S(=O)(=O)N2CCN(C(=O)COC(=O)c3ccccn3)CC2)c(C)c1
    x | 0.67 | 1.8 | 0.8 | 8 | -4 | 6.4 | -7 | -9
18) O=C(OCCN1CCCCC1)c1ccc(Cl)cc1
    x | 0.73 | -1.3 | -2.6 | x | x | x | -9 | 4
19) Cc1ccc(-c2nn(C)c(=O)c3ccccc23)cc1S(=O)(=O)N1CCOCC1
    x | 0.74 | 0.3 | -3.5 | x | x | x | -4 | -3
20) CS(=O)(=O)N(CC(=O)N1CCCCCC1)c1ccc(Br)cc1
    x | 0.72 | 1.3 | 1.8 | x | x | x | -16 | -5
21) COC(=O)CN1C(=S)N(c2ccc(OC)cc2)C(=O)/C1=C/c1cccs1
    x | 0.72 | 1.1 | 0.3 | x | x | x | 0 | -3
22) Cc1coc(=N)n1CC(=O)c1ccc(Cl)cc1
    x | 0.61 | 2.9 | -1.7 | 14 | 10 | 2.3 | x | -4
23) O=S(=O)(NCC(c1ccc2c(c1)OCO2)N1CCOCC1)c1ccc(Cl)cc1 (stereo unspecified)
    i | x | 1.8 | x | -7 | -14 | 2.9 | -33 | -9
24) O=C(CCCN1C(=O)/C(=C/c2ccc3c(c2)OCO3)SC1=S)Nc1cccc(C(=O)O)c1
    x | 0.66 | 18 | 7.9 | -15 | -20 | 0.3 | x | 2
25) O=C(CN1CCN(Cc2ccccc2)CC1)Nc1nc2ccccc2s1
    i | 0.67 | -1.9 | 5.9 | -2 | -14 | -3.2 | -3 | 7
26) COc1ccc(OC)c(NC(=O)c2cccc(NC(=O)c3ccco3)c2)c1
    i | x | 0.9 | x | -11 | -2 | -1.2 | x | x
27) COc1ccc(-c2cc(C3CCN(CC(O)C(F)(F)F)CC3)[nH]n2)cc1 (stereo unspecified)
    i | 0.65 | 0.7 | 4.4 | 0 | 2 | -0.5 | x | 0
28) COc1ccc(C(=O)NCC(O)COc2ccc(C(C)(C)C)cc2)cc1[N+](=O)[O-] (stereo unspecified)
    x | 0.71 | x | 4.3 | x | x | x | 1 | x
29) C=CCc1c(C)nc(N)[nH]c1=O
    i | 0.66 | 3.0 | 0.0 | 7 | -15 | -3.3 | x | 5
30) CC(C)(C)NC(=O)CN(C(=O)CN1C(=O)C(=O)c2ccccc21)C(C)(C)C
    i | 0.68 | 2.8 | -2.2 | 15 | 14 | 2.0 | -5 | -16

Additional entries
Each structure is followed by: FGF22 binding | E coli growth | HNF4A DNA FP | UCH37 inh | rRNA inh HTS | rRNA inh HTS OD600 | rRNA inh HTS RFP | ALR H2O2 inh | B2AR ag
31) COc1cc(OC)cc(C(=O)NCC(=O)OCC(=O)NC2CCCc3ccccc32)c1 (stereo unspecified)
    i | 0.72 | 1.8 | 4.9 | -5 | 5 | 4.0 | -4 | 0
32) Cc1ccc(-n2nc(C)c3c(C)onc3c2=O)cc1
    i | 0.67 | -2.2 | 4.9 | x | x | x | 2 | -1
33) CCOc1ccc(S(=O)(=O)N2CCOCC2)cc1NC(=O)C1CSC2(C)CCC(=O)N12 (stereo unspecified)
    i | 0.72 | 4.2 | 0.4 | 8 | -4 | -1.7 | -1 | -4
34) Cc1ccc(S(=O)(=O)N2CCN(CCOc3ccccc3)CC2)cc1
    i | 0.71 | 0.7 | -0.7 | -7 | -4 | 4.4 | x | -1
35) O=C1CCC(=O)N1Cc1c(Cl)cccc1Cl
    i | 0.65 | -1.6 | 1.3 | 13 | 20 | 2.1 | 0 | 4
36) O=C(Cc1cn2ccsc2n1)OCc1nc2ccccc2s1
    x | 0.71 | x | 1.2 | x | x | x | -13 | x
37) O=C(NCC(=O)N(Cc1ccccc1)C(C(=O)NC1CCCC1)c1ccco1)c1ccco1 (stereo unspecified)
    x | 0.74 | 2.8 | 1.0 | x | x | x | -4 | -8
38) O=C(NCCc1ccccc1)N1c2ccccc2Sc2ccccc21
    x | 0.75 | -4.0 | -1.3 | x | x | x | -7 | -3
39) COc1ccc(-c2cc(-c3ccccc3)nc(=O)[nH]2)cc1
    i | 0.68 | 0.6 | i | 10 | 12 | -6.8 | 1 | -8
40) O=C(CSc1nnc(Cn2nnc3ccccc32)o1)N(Cc1ccc(F)cc1)c1ccccc1
    x | 0.65 | 2.0 | 1.3 | x | x | x | -1 | -6
41) COc1ccc(C(=O)Nn2cnc3ccccc3c2=O)c(OC)c1
    i | x | -1.7 | x | 3 | 3 | -2.1 | 5 | -2
42) O=C(O)CCn1cc(/C=C2/NC(=S)N(c3ccccc3)C2=O)c(-c2ccccc2)n1
    x | 0.67 | 2.7 | 7.2 | x | x | x | 97* | 5
43) COc1ccc(C(=O)Nc2cc(C(C)=O)c(/C=C/N(C)C)oc2=O)cc1
    x | 0.67 | 117* | 8.6 | x | x | x | 11 | 13
44) CN1CCN(c2nc3c(c(=O)[nH]c(=O)n3C)n2Cc2cccc(Br)c2)CC1
    i | 0.72 | -1.8 | 1.8 | 22 | 12 | 0.5 | 3 | -5
45) S=C1NC(c2ccccc2)=NCN1c1ccc(Br)cc1
    i | 0.7 | 2.8 | 5.3 | -6 | -5 | -0.5 | -2 | -1

(cont.)
Each structure is followed by: FGF22 binding | E coli growth | HNF4A DNA FP | UCH37 inh | rRNA inh HTS | rRNA inh HTS OD600 | rRNA inh HTS RFP | ALR H2O2 inh | B2AR ag
46) Cc1ccc(-c2nnn(CC(=O)N3CCC(C)CC3)n2)o1
    x | 0.69 | -1.0 | 3.5 | x | x | x | -10 | 4
47) CCCc1cc(=O)[nH]c(SCC(=O)Nc2cccc(S(=O)(=O)N3CCCCC3)c2)n1
    i | 0.71 | 3.7 | 6.4 | 6 | 12 | 2.4 | -11 | 10
48) COc1ccc(S(=O)(=O)NCCN2CCOCC2)cc1[N+](=O)[O-]
    i | 0.7 | 0.0 | 0.0 | 4 | 15 | 0.5 | 0 | 8
49) O=C(CCn1c(=O)oc2ccccc21)N1CCN(C(c2ccccc2)c2ccccc2)CC1
    x | 0.69 | 4.0 | 3.7 | x | x | x | -9 | 2
50) CCOC(=O)c1c(C)[nH]c(C)c1C(=O)CSc1nncs1
    i | 0.64 | -2.6 | 4.5 | -1 | 0 | -3.1 | 9 | 0
51) Cc1cc2ccccc2nc1-c1ccccc1F
    i | x | -3.9 | x | -16* | -24* | 0.5* | x | -23
52) CC(=O)O[C@H]1CC(=O)OC(C)(C)C2CC(=O)[C@]3(C)C(CC[C@@](C)([C@@H](O[C@@H]4O[C@H](CO)[C@@H](O)[C@H](O)[C@H]4O)c4ccoc4)[C@@]34O[C@@H]4C(=O)O)[C@]21C (stereo partly specified)
    i | 0.73 | 2.2 | 3.5 | 3 | 1 | -8.1 | x | -6
53) O=C(C(=O)c1ccc(O)c(O)c1)c1ccc(O)c(O)c1
    i | 0.71 | -5.3 | 24* | 1 | -11 | 1.7 | x | -1
54) CC/C(=N\NC(=O)c1nnn(-c2nonc2N)c1-c1cccc(OC)c1)c1ccc(C)cc1
    i | x | 0.0 | x | 14 | 7 | 1.4 | -16 | 6
55) COc1ccc(CC(=O)Nc2ccc3c(c2)CCC3)cc1S(=O)(=O)N1CCOCC1
    x | 0.7 | 1.9 | 1.6 | x | x | x | 2 | 1
56) COc1ccc2c(=O)c(-c3ccccc3)coc2c1
    i | 0.77 | 0.6 | -0.2 | x | x | x | -30 | -5
57) COc1ccc(Cn2c(=O)[nH]c3cc(C(=O)NC4CCCC4)ccc3c2=O)cc1
    i | 0.71 | -2.1 | -2.8 | 6 | 4 | 6.1 | -3 | -7
